Compound activity deposited in PubChem by National Center for Advancing Translational Sciences (NCATS).
Rango-impB inh: prevents formation of the Rango-importin beta complex; Q14974; Rango CFP/YFP FRET sensor + importin beta, 45 min; Potency, µM (highest dose often 92.2 µM), without a hit: top-dose inhibition of complex formation; hit rate 0.031% among 340,000; AID 540263; active = rising FRET ratio curve, often small or poorly fitted; inconclusive = mostly compound fluorescence or quenching in the first reads; inactive = flat curves in all reads;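 also: potency is read from the fitted curve at half-maximal effect; 0% = DMSO wells and 100% = buffer wells lacking importin beta; nearly all actives have a fitted effect of over 15% in size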
Target sequence (Q14974 whole entry, looked up): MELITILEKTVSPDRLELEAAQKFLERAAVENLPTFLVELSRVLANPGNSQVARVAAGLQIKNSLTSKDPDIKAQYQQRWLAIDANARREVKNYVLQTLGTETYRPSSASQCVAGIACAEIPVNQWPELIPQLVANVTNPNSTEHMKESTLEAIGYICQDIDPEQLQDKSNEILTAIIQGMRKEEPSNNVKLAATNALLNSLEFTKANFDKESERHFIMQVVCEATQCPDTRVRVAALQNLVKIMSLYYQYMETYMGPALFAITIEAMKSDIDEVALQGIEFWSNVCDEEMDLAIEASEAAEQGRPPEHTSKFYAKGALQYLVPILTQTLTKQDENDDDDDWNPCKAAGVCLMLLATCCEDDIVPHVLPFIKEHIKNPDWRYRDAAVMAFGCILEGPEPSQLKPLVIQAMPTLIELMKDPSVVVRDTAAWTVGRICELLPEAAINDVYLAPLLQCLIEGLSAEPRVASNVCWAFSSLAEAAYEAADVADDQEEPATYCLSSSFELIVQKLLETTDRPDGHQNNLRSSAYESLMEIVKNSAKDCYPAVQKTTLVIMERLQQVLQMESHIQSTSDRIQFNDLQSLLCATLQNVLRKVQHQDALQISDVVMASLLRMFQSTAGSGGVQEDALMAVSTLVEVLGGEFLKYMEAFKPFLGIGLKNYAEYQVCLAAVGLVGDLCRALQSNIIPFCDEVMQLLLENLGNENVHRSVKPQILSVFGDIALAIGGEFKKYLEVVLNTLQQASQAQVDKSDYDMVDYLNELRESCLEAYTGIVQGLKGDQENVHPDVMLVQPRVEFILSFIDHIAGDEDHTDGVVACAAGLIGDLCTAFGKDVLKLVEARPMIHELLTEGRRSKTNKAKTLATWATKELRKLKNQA
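FRET biosensor (snurportin 1 IBB flanked by EYFP and cerulean), 50 nM, with compound 5 min, then 0.125 microM importin beta in PBS, 1 mM DTT, 0.02% Tween-20, 0.1% BSA. CFP/YFP ratio read after 45 min at room temperature; pre-read flags interference.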
Rango dissoc inh: inhibitors of RanGTP-induced Rango-importin beta complex dissociation | hit rate 0.071% among 340,000 | Potency, µM (doses to about 46.1 µM), without a hit: at the top dose activity change, negative = inhibition | Biochemical FRET Rango-importin beta, RanGTP-induced dissociation | AID 540253; active means falling FRET ratio curve, often poorly fitted, with flat reads before Ran was added; inconclusive means other falling curves, or compound fluorescence or quenching; inactive means flat or rising ratio curve;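 also: potency is read from the fitted curve at half-maximal effect; % of control where 0% means no effect; nearly all actives have a fitted effect of over 45% in size; -100% = wells without RanGTP and RCC1; the record marks most hits as doubtful in a second field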
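Compounds sat 5 min at room temperature with 0.1 uM Rango biosensor plus 0.25 uM importin beta, then FRET pre-read. RanGTP-RCC1 (0.6 uM Ran, 2mM GTP, 0.2 uM RCC1) added for 45 min, and the CFP/YFP post-read measured blocked complex dissociation.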
miR-21 FLuc: raises the signal of a miR-21 reporter; Potency, µM (doses to about 38.3 µM), for the others: top-dose reporter change, positive = more light; HeLa miR-21 FLuc reporter, luciferase, 48 h; 340,000 tested, under 10 active; active = well fitted rising curve with a large enough effect; inconclusive = small, poorly fitted or top-dose-only effect; inactive = no such curve, though single readings can be large or run the other way;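 also: % of control where 0% means no effect; miR-21 action dims this reporter so a rising signal means less miR-21 action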
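Using DMEM plus 10% FBS, HeLa miR-21-FLuc cells are incubated with test compounds (final up to about 40uM) for 48 hours; firefly luciferase signal is then imaged following reagent-mediated lysis.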
GLA inh pH 4.5: inhibitors of human alpha-galactosidase A at pH 4.5 | P06280 | purified enzyme, 4-MU-alpha-Gal fluorescence, pH 4.5 | activity change, negative = inhibition, % at 105 µM | 230,000 tested, under 10 active; inconclusive = small, poorly fitted or top-dose-only inhibition, or a rising curve; inactive = flat fitted curve, though single readings scatter; no compound was filed as active;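 also: 0% = full activity with enzyme and -100% = basal without enzyme; dose as in the result columns while the protocol names 77 µM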
Numbers without * were called inactive; ? = inconclusive; / = not tested or not shown; & = joins results of further samples. A portion of the library (hit frequency here may not be typical).

miR-21 FLuc	molecule	Rango dissoc inh	GLA inh pH 4.5	Rango-impB inh
-42%	Cc1ccc(NC(=O)CCCNC(=O)c2ccc(Cl)cc2)nc1	?	/	0.3%
-6%	COc1cccc(NC(=O)CSc2nnc(NC(=O)C3CC3)s2)c1	3%	/	-6.2%
-2%	c1ccc(-n2ncc(-c3nn[nH]n3)n2)cc1	12%	-8	-1.0%
-31%	Cc1nn(C)cc1C1Nc2ccccc2C(=O)N1O (centres undefined)	-8%	-13	?
-38%	O=C(CSC1=NCCS1)Nc1ccc2ccccc2c1	-3%	-2	0.1%
-45%	O=c1/c(=C\c2cccnc2)sc2nc3ccccc3n12	-12%	-17	-1.1%
1%	Clc1ccc(Cn2cnc3ccccc32)cc1	-14%	8	-1.8%
4%	Cc1ccc(/C=C/c2ccc(=O)n(Cc3ccccc3Cl)n2)cc1	8%	-11	-2.0%
-1%	O=C1CCC(C(=O)O)(c2ccccc2)C1 (centres undefined)	/	7	/
-3%	Cc1ccc(/C=N/NC(=O)c2cc3c(ccc4ccccc43)o2)cc1[N+](=O)[O-]	0%	-5	-2.0%
16%	COc1ccc(C(=O)Nc2cc(C(C)=O)c(C)oc2=O)cc1	-10%	6	-1.4%
-2%	COc1ccc(C(=O)N2CCC(C(=O)Nc3ccccc3C)CC2)cc1OC	1%	5	-2.7%
/	COc1ccc(C(CNC(=O)c2cccc(S(=O)(=O)Nc3cccc(C)c3)c2)N2CCOCC2)cc1 (centres undefined)	-6%	/	-0.6%
-21%	Clc1ccc(-c2nc(/C=N/N3CCOCC3)c3ccccn23)cc1	-11%	0	?
-4%	COc1ccc(OCC(=O)Nc2ccc3c(c2)nc(CN2CCCC2)n3C)cc1	7%	1	-3.0%
-15%	CC(=O)N1CCN(Cc2nc3cc(NC(=O)c4ccc(F)cc4)ccc3n2C)CC1	6%	3	2.1%
-13%	O=C(NC(=S)NCc1cccnc1)c1cc2ccccc2o1	1%	7	0.0%
-9%	O=C(/C=C/c1ccc([N+](=O)[O-])cc1)OCC(=O)N1c2ccccc2Sc2ccccc21	14%	-7	0.3%
-10%	COc1ccc(/C=C2\Sc3ccc(C(=O)N4CCCC4)cc3N(C)C2=O)cc1OC	12%	/	0.2%
-1%	CCC(C)(C(=O)NC1CCCCC1)N(C)C(=O)c1ccc2c(c1)OCO2 (centres undefined)	-5%	1	0.1%

An excerpt from further up, for reference:
miR-21 FLuc	molecule	Rango dissoc inh	GLA inh pH 4.5	Rango-impB inh
16%	COc1ccc(C(=O)Nc2cc(C(C)=O)c(C)oc2=O)cc1	-10%	6	-1.4%
-2%	COc1ccc(C(=O)N2CCC(C(=O)Nc3ccccc3C)CC2)cc1OC	1%	5	-2.7%
/	COc1ccc(C(CNC(=O)c2cccc(S(=O)(=O)Nc3cccc(C)c3)c2)N2CCOCC2)cc1 (centres undefined)	-6%	/	-0.6%

Next section
miR-21 FLuc	molecule	Rango dissoc inh	GLA inh pH 4.5	Rango-impB inh
2%	CC(C)CC(=O)Nc1cccc(C(C)O)c1 (centres undefined)	/	0	/
1%	Cc1ccc(NC(=O)CN2C(=O)N/C(=C\c3cccn3-c3cccc(C(=O)O)c3)C2=O)cc1	-4%	-5	?
-13%	COc1ccccc1NC(=O)C(C)n1cnc2c(oc3nc4c(cc32)CCCC4)c1=O (centres undefined)	-5%	/	-1.2%
0%	Cn1c(CNS(=O)(=O)c2ccc(F)cc2)n[nH]c1=S	-3%	1	1.1%
-55%	O=C(Nc1ncc(Cc2ccccc2)s1)C1COc2ccccc2O1 (centres undefined)	1%	19	-2.9%
/	O=C(NNC(=O)c1cccc(-n2cccc2)c1)c1ccccc1	-9%	/	0.1%
5%	COc1cc(NC(=O)CSc2nncn2C)c(C)cc1[N+](=O)[O-]	-1%	7	2.6%
-3%	CSc1ccc(C(=O)C2CCCN(C(=O)CN3CCOC3=O)C2)cc1 (centres undefined)	0%	/	-1.1%
-1%	Cc1ccc(-n2nnnc2CNC(=O)c2ccc(Br)o2)cc1C	-7%	/	-3.3%
-6%	O=C(Cc1ccc(-n2cccc2)cc1)NC1CCCCC1	-8%	-9	-2.7%
-45%	Nc1ccccc1SC1CC(=O)N(c2ccc3c(c2)OCCO3)C1=O (centres undefined)	13%	6	4.2%
-12%	O=c1nc2n(c3c1oc1ccccc13)Cc1ccccc1-2	/	-18	/
-11%	COc1ccccc1OCC(=O)NCc1nc(-c2ccccc2)no1	0%	5	1.5%
-6%	Cc1cccc(NC(=O)CN2C(=S)NC(C)(C)CC2C)c1C (centres undefined)	47%	2	1.0%
-2%	COC(=O)C(CC(=O)Nc1cc(C)ccc1C)Nc1ccccc1OC (centres undefined)	2%	4	?
-3%	COc1ccc(Cn2nnnc2C(c2ccccc2OC)N2CCC(C(N)=O)CC2)cc1 (centres undefined)	-7%	4	0.4%
-4%	NC(=O)[C@@H]1CCCN1Cc1c(C(=O)N2CCN(C3CCCCC3)CC2)nc2ccccn12	?	/	?
7%	COc1cccc(C2c3[nH]c4ccccc4c3CCN2Cc2cccc(C)n2)c1 (centres undefined)	?	-8	?
/	Cc1ccc(C)c(S(=O)(=O)N2CCN(C(=O)Cc3ccccc3)CC2)c1	1%	/	-1.4%
/	CN(CC(=O)Nc1cccc(F)c1)C(=O)CNC(=O)Cc1cccc2ccccc12	18%	/	2.3%
4%	CCC(c1nnnn1Cc1ccco1)N1CCC(C(N)=O)CC1 (centres undefined)	-3%	0	-0.5%
-4%	CCN(CC(=O)Nc1ccc(N2CCOCC2)cc1)C(=O)c1ccc(C(F)(F)F)cc1	1%	9	-1.5%
-5%	CSC1=N/C(=C\c2ccc(C)cc2)C(=O)S1	-8%	-7	?
23%	Cn1cccc1-c1cc(C(=O)N/N=C/c2cc(Br)ccc2O)[nH]n1	-32%	/	?
-7%	Nc1nc(SCn2nnc3ccccc3c2=O)n[nH]1	-12%	4	0.3%
-13%	O=C(NN1C(=O)c2ccccc2NC12CCCCC2)c1ccccc1	1%	8	0.4%
-3%	COc1ccc(NC(=O)CN(C)C2CCCCC2)cc1Cl	0%	-3	2.3%
-57%	CC1CCN(C(=O)CSc2nc3ccccc3s2)CC1	9%	5	-2.2%
/	COc1ccccc1OCC(=O)NNC(=O)CSC(=S)N1CCCC1	-3%	/	-5.6%
-1%	CC(OC(=O)CCCN1C(=O)c2ccccc2C1=O)C(=O)Nc1ncc(Cl)cc1Cl (centres undefined)	2%	6	0.1%
-60%	Cc1snc(SCC(=O)c2ccc(Cl)cc2)c1C#N	-12%	5	-3.0%
6%	C/C(O)=C(/C#N)c1nc2ccccc2[nH]1	11%	2	3.2%
-8%	Nn1c(SCc2ccc(C(=O)O)cc2)nnc1-c1ccc(Cl)cc1Cl	-1%	/	-1.7%
-2%	CCOc1cc(CNc2ccc(N3CCN(C(C)=O)CC3)cc2)cc(Br)c1OC	14%	-3	4.2%
/	COc1ccc(NC(=O)Nc2ccc3c(c2)C(=O)N([C@H](C)CO)C[C@H](C)[C@@H](CN(C)S(=O)(=O)c2cccs2)O3)cc1	-13%	/	-14%
-11%	Cc1ccc(NC(=O)NC(=O)CN2C(=O)NC3(CCc4ccccc43)C2=O)c(C)c1 (centres undefined)	-7%	-15	0.3%
-5%	O=C(N/N=C/c1ccncc1)c1cc([N+](=O)[O-])cc([N+](=O)[O-])c1O	-6%	-10	4.0%
-28%	Cn1c(C2=C(O)CN(c3ccc4c(c3)OCCO4)C2=N)nc2ccccc21	2%	-2	3.5%
/	O=C(COC(=O)c1ccc([N+](=O)[O-])o1)NCCc1ccccc1	?	/	?
8%	COc1cc(/C=N/NC(=S)NCC2CCCO2)cc(OC)c1OC (centres undefined)	7%	-7	-1.5%
0%	CCOC(=O)c1sc(NC(=O)CSc2nnnn2-c2ccc(C)cc2C)nc1C	-9%	2	0.8%
-49%	Cc1cc(C)n(CC(O)COc2ccc(Cl)cc2Cl)n1 (centres undefined)	-18%	/	-0.6%
-8%	CC1(NC(=O)C23CC4CC(CC(C4)C2)C3)CCS(=O)(=O)C1 (centres undefined)	0%	1	-5.5%
0%	Cc1sc2nc(NCCO)[nH]c(=O)c2c1C	-6%	-3	0.7%
-34%	Cc1ccc2[nH]c(C)c(/C=N/Nc3nc4ccccc4s3)c2c1	19%	1	0.6%
-5%	CN1C(=O)C2(C(C#N)=C(N)Oc3c2oc(CO)cc3=O)c2ccccc21 (centres undefined)	1%	-2	-3.5%
-17%	CC(NC(=O)c1cnccn1)c1ccc(S(N)(=O)=O)cc1 (centres undefined)	12%	6	2.0%
-19%	Cc1cc(NC(=O)CSc2ccc(-c3ccc(Br)cc3)nn2)no1	24%	/	-2.6%
/	Cc1ccc(C(=O)NCC(=O)N(C)Cc2cccc(F)c2)s1	5%	/	1.8%
0%	CCCCc1nnc(NC(=O)Cn2cnc3ccccc3c2=O)s1	-7%	0	0.1%

(more compounds)
miR-21 FLuc	molecule	Rango dissoc inh	GLA inh pH 4.5	Rango-impB inh
/	COc1ccc(N(C)S(=O)(=O)c2cccc(C(=O)Nc3nc(C)c(C(C)=O)s3)c2)cc1	-16%	/	-3.4%
-9%	C(=C\c1nnc2c3ccccc3ncn12)/c1ccccc1	-15%	-3	-1.0%
-15%&-2%	N#CC(=C=[N-])c1nc2ccccc2nc1-[n+]1cccc(NC(=O)c2ccccc2)c1	?	-24&9	-0.4%
-1%	O=c1c2ccccc2nc2n1C(CSc1ccc(Br)cc1)CN2 (centres undefined)	0%	10	-0.4%
-45%	CCCNC(=O)Nc1nc2ccccc2s1	24%	-4	0.0%
-2%	O=C(CN1C(=O)C2CC=C(Cl)CC2C1=O)NCc1ccccc1 (centres undefined)	?	13	?
2%	CS(=O)(=O)N(CC(=O)Nc1ccccc1Sc1ccccc1)C1CCCCC1	1%	5	1.6%
-35%	Clc1ccc2[nH]c(-c3ccccc3)cc2c1	-4%	-6	2.2%
0%	Cc1cc(Nc2ccccc2)n(C(=O)c2ccc(N)cc2)n1	-4%	-3	1.8%
/	Cc1cccc(-c2ccc3c(c2)C2CC3CCN2C)c1 (centres undefined)	2%	/	-4.5%

Results in miR-21 FLuc, Rango dissoc inh and Rango-impB inh (6 entries from above):
SMILES | miR-21 FLuc | Rango dissoc inh | Rango-impB inh
C(=C\c1nnc2c3ccccc3ncn12)/c1ccccc1 | -9% | -15% | -1.0%
CCCNC(=O)Nc1nc2ccccc2s1 | -45% | 24% | 0.0%
COc1ccc(N(C)S(=O)(=O)c2cccc(C(=O)Nc3nc(C)c(C(C)=O)s3)c2)cc1 | / | -16% | -3.4%
CS(=O)(=O)N(CC(=O)Nc1ccccc1Sc1ccccc1)C1CCCCC1 | 2% | 1% | 1.6%
O=C(CN1C(=O)C2CC=C(Cl)CC2C1=O)NCc1ccccc1 (centres undefined) | -2% | ? | ?
Cc1cccc(-c2ccc3c(c2)C2CC3CCN2C)c1 (centres undefined) | / | 2% | -4.5%

Next section:
miR-21 FLuc	molecule	Rango dissoc inh	GLA inh pH 4.5	Rango-impB inh
-4%	COc1ccc(C/C(N)=N/OC(=O)C(c2ccccc2)c2ccccc2)cc1OC	1%	5	?
-65%	C=C(C)CNC(=O)CCc1nnc(Cc2cccc(C(F)(F)F)c2)o1	7%	5	-1.2%
-47%	Cn1cnnc1SCC(=O)Nc1ccc2nc(SCc3ccccc3F)sc2c1	-18%	-1	5.4%
-8%	Cc1nc2ccc(NC(=O)N3CCSCC3)cc2nc1C	2%	-3	?
?	CC(C)(C)c1ccc(C(=O)N2CCCCCC2=O)cc1	-11%	5	0.3%
-3%	CCOC(=O)/C=C/C(=O)N1CCN(C(=O)/C=C/C(=O)OCC)CC1	-2%	-4	0.7%
/	CC12CCC(=O)N1C(C(=O)Nc1ccc(S(=O)(=O)N3CCCCC3)cc1)CS2 (centres undefined)	-4%	/	-0.4%
/	CC(=O)Nc1ccc(S(=O)(=O)N(C)CC(=O)NC2CCCC(C)C2C)cc1 (centres undefined)	-9%	/	-1.1%
0%	CCN(c1ccccc1)C1(O)C(=O)c2ccccc2C1=O	-5%	-6	-0.6%
